# High-throughput results from PubChem.
# PMP22 txn prim: Cell-based coincidence reporter assay to measure PMP22 gene transcription in S16 Pmp22-F2sN cells - Primary screen. S16 Pmp22-F2sN Schwann cells (luciferase reporters placed in the Pmp22 gene), FLuc/NLuc coincidence luminescence, 24 h. Potency, µM (top dose mostly 57.5 µM), inactives show at the top dose activity change, negative = inhibition, hits mostly inhibitors. actives 2% (n = 43,000); active = clear falling dose curves in both reporters; inconclusive = both reporters move, but less clearly or upward; inactive = either reporter flat; the % is the NLuc reporter signal; further: on the % scale 0 is the no-effect control and ±100 the full control effect; some results filed as inactive show a strong effect at the top dose
#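 Transcriptional readout in edited S16(c9) cells: two luciferases reported from the Pmp22 locus, measured in turn after 24 h compound incubation.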
# HTT prom inh: Primary qHTS for Identification of Small Molecule Inhibitors of Huntingtin Promoter Activity. HEK293 HTT promoter firefly luciferase reporter (activity 0% = vehicle and -100% = no light), 24 h. Potency, µM (titrated, usually from 57.5 µM), for inactives: at the highest dose activity change, negative = inhibition, actives largely listed as inhibitors. actives 0.93% (n = 48,000). AID 1508623, 2021; active means well fitted inhibition curve with a large enough effect; inconclusive means small, poorly fitted or top-dose-only effect; inactive means no such curve, though single readings can be large or run the other way; further: nearly all actives have a fitted effect of over 50% in size
#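 HEK293 cells carrying firefly luciferase reporters were seeded at 2,500 per well in Opti-MEM and cultured for 24 h. They were then treated with compounds at up to 57.5 uM final for 24 h at 37 degrees C before Dual-Glo luminescence readout.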
# * marks the source's active call; other numbers are inactive results; u = inconclusive; x = no result given; & = joins results of further samples; [ ] = remark or other dose. Potency means the concentration at half of the fitted maximal effect. Compounds as they come (roughly 2.6% active in at least one column).
SMILES,PMP22 txn prim,HTT prom inh
CCOc1ccccc1C(=O)Nc1nc2c(s1)CC(C)CC2 (centres undefined),0%,34%
Cc1ccc(CSc2oc(-c3cccs3)nc2S(=O)(=O)c2ccccc2)cc1,11%,-13%
O=C(CCCCn1c(=O)c2ccccc2n(Cc2cccc(F)c2)c1=O)NCc1ccc2c(c1)OCO2,u,-30%
COc1ccc(NC(=O)CCS(=O)(=O)c2nc(-c3ccc4c(c3)OCO4)cc(C(F)(F)F)n2)cc1OC,-13%,u
Cc1cccc(CSc2ncc(Cl)c(C(=O)Nc3nc4ccc(F)cc4s3)n2)c1,u,3%
CCCN1C(=O)C(Cc2nc3ccccc3c(=O)n2CC)c2cc(Br)ccc21 (centres undefined),u,-19%
O=C(c1cnc(N2CCOCC2)c2ccccc12)N1CCN(c2ccc(F)cc2)CC1,u,u
CC(=O)Nc1ccc(NC(=O)CN2C(=O)CCc3cc(S(=O)(=O)N4CCCCC4)ccc32)cc1,8%,-12%
COc1ccc(NCc2cccn2-c2nnc(N3CCCCC3)s2)cc1OC,-29%,7.9µM*
CCc1nn2c(=O)cc(COC(=O)c3ccc(NC(=O)COc4ccc(C)cc4)cc3)nc2s1,24%,-22%
CC1CCN(C(=O)CN2c3ccc(C(C)C)cc3-c3ccccc3S2(=O)=O)CC1,u,13%
CC(Nc1ccc(-c2nc(-c3ccco3)no2)cc1[N+](=O)[O-])c1ccccc1 (centres undefined),-22%,13%
COc1ccc(CNC(=O)CN2C(=O)COc3ccc(S(=O)(=O)N4CCC(C)CC4)cc32)cc1,1%,-1%
Cc1cccc(CC(=O)N2CC(=O)Nc3ccc(C)cc3C2c2ccc(F)cc2)c1 (centres undefined),-9%,u
Cc1ccc(-c2nc(CS(=O)(=O)CC(=O)NCc3ccc(Cl)cc3)c(C)o2)cc1,-35%,4%
CC1CCN(S(=O)(=O)c2cn(CC(=O)Nc3ccc(F)cc3)c(=O)c3ccccc23)CC1,-16%,u
CCc1ccccc1NC(=O)CN(c1ccc(OC)cc1)S(=O)(=O)c1c(C)n[nH]c1C,u,-30%
CCN(CC)c1cc(C)c2cc(NC(=O)/C=C/c3cc(OC)c(OC)c(OC)c3)ccc2n1,u,-8%
CCc1ccc2oc(-c3cc(NC(=O)C(C)C)cc(C)c3O)nc2c1,-26%,-6%
CCOc1ccc(CCNC(=O)C2CCN(C(=O)N3CC(CC)Oc4ccc(C)cc43)CC2)cc1 (centres undefined),u,u
COc1cc(NC(=O)Cn2cnc3sc(C)c(S(=O)(=O)N4CCN(C)CC4)c3c2=O)cc(OC)c1OC,2%,-4%
CCc1ccc(-c2nc3cc(NC(=O)c4cc5ccccc5cc4OC)ccc3o2)cc1,u,-22%
COC(=O)c1cc(NC(=O)c2nn(C)c3c2COc2ccccc2-3)cc(C(=O)OC)c1,3%,-12%
O=C(Cn1c(SCc2cccc(F)c2)nc2cccnc21)Nc1ccc(F)c(Cl)c1,-60%,u
Cc1ccccc1OCC(=O)Nc1nnc(S(=O)(=O)N2CCCCCC2)s1,-7%,-31%
CCC(=O)Nc1ccc(CC)cc1-c1nc2ccccc2n(CC(=O)Nc2cccc(Cl)c2)c1=O,u,u
CCc1cnc2c(c1SCc1ccccc1C)c(=O)n(C)c(=O)n2C,-33%,-15%
CCc1ccccc1N1C(=O)N(Cc2ccc(C#N)cc2)c2ccccc2S1(=O)=O,-28%,u
COc1ccccc1-c1cc2nc(C)c(CCC(=O)Nc3ccc(Br)c(C)c3)c(C)n2n1,22%,u
CC1=C(C(=O)Nc2ccccc2C)C(c2cccnc2)n2nc(SCc3ccccc3F)nc2N1 (centres undefined),22%,-7%
CCCCCCNC(=O)n1cc(F)c(=O)[nH]c1=O,x,-17%&20%
CCc1ccc(-c2[nH]nc3nc(-c4cc(OC)ccc4OC)cc(C(=O)O)c23)cc1,9%,-9%
CCOc1ccccc1C1C(C(=O)Nc2ccccc2OC)=C(C)Nc2nc3ccccc3n21 (centres undefined),0%,-2%
Cc1ccc(-c2nnc(Nc3ccc(O)cc3)c3ccccc23)cc1S(=O)(=O)N1CCOCC1,u,u
O=C(COc1ccccc1Cl)OCc1cc(=O)n2nc(C3CC3)sc2n1,-39%,-17%
COc1ccc(CNC(=O)c2ccc3c(c2)N(Cc2c(F)cccc2Cl)C(=O)CS3)cc1,2%,u
CCCCN(CC)CCCNC(=O)c1sc2nc3n(c(=O)c2c1C)CCCCC3,-18%,9%
CC(=O)c1ccc(NC(=O)CSc2nc(-c3ccccc3C)nc3c2c(=O)n(C)c(=O)n3C)cc1,3%,-4%
CC(NC(=O)C1CCN(c2nc3ccccc3nc2C(F)(F)F)CC1)c1ccccc1 (centres undefined),0%,-39%
N#Cc1c[nH]n2c(NC3CCCC3)c(-c3ccc(Cl)cc3)nc12,u,-13%
Cc1ccc(NC(=O)c2cc3c([nH]c2=O)CC(C)(C)CC3=O)c(C)c1,u,77%[activator]
C=Cc1ccc(Cn2c(=O)n(CC3CCC(C(=O)NC(C)C)CC3)c(=O)c3sccc32)cc1 (centres undefined),u,-9%
Oc1c(C(c2ccccc2)N2CCN(c3ccccc3)CC2)sc2nc(-c3ccco3)nn12 (centres undefined),11%,-2%
Cc1ccc(N2CC(NC(=O)c3ccc4c(c3)OCO4)CC2=O)cc1 (centres undefined),u,-16%
COc1ccc(-c2noc(N3CCC(C(=O)N4CCN(c5ccccc5F)CC4)CC3)n2)cc1,u,u
CCCCOc1ccccc1Cn1c(=O)sc2ccccc21,7%,-12%
CCc1nnc(SCc2cccc(F)c2)c2cc3sc(C)cc3n12,u,-23%
Cc1ccc(NC(=O)CCn2c(=O)c3cccn3c3ccccc32)cc1C,u,-16%
Cc1cccc(-c2nc3c4ccccc4n(CC(=O)Nc4cc(F)ccc4F)c(=O)n3n2)c1,-14%,0%
Cc1ccc(CN2CCc3nc(N4CCN(c5ccccc5F)CC4)ncc3C2)cc1C,-15%,u
Cc1ccc(Cl)cc1-n1c(=O)cc(N2CCN(c3ccc(F)cc3)CC2)[nH]c1=O,u,-25%
Cc1ccc2occ(CC(=O)N(Cc3ccc(Cl)cc3)Cc3ccco3)c2c1,u,-5%
O=C(C1CCC1)N1CCc2cc(S(=O)(=O)NCCc3ccccc3)ccc21,u,-26%
CCOc1ccc(CCNc2ncnc3onc(-c4ccc(Cl)cc4)c23)cc1OCC,u,u
Cc1ccc2c(c1)cc1c(=O)n(CC(=O)NCc3ccco3)nc(C)n12,-2%,9%
O=C(Nc1cc2c(cc1C(=O)c1ccccc1Cl)OCCO2)c1ccccc1,10%,u
Cc1cc(C(=O)C(=O)Nc2nnc(C(C)C)s2)c(C)n1-c1ccccc1,-8%,6.3µM*
COc1ccc(-n2ncc3c(NCCCOC(C)C)ncnc32)cc1,-1%,-2%
Cc1cccc(C(=O)NCc2cn3cccc(C)c3n2)c1,-1%,-1%
COc1cccc(-c2nc(SCc3cc(=O)c4ccc(C)c(C)c4[nH]3)n[nH]2)c1,u,-24%
# Additional results:
SMILES,PMP22 txn prim,HTT prom inh
COc1ccc(C(=O)N2CCN(Cc3cc(=O)n4nc(-c5ccccc5C)sc4n3)CC2)cc1OC,-12%,-22%
COC(=O)[C@H]1[C@H]2C[C@@H]3c4[nH]c5cc(OC)ccc5c4CCN3C[C@H]2C[C@@H](OC(=O)COc2ccc(OC)cc2)[C@@H]1OC,x,-7%
CCCCNC(=O)CCCn1c(=O)c2ccccc2n(Cc2cccc(Cl)c2)c1=O,u,-25%
CCc1ccc(NC(=O)Cn2c(=O)n(CCC(=O)NCCc3ccc(Cl)cc3)c(=O)c3ccccc32)cc1,0%,-10%
Cc1cccc(NC(=O)Cn2c(=O)n(CCc3ccccc3)c(=O)c3ccccc32)c1,u,-2%
CCc1nn(Cc2cccc(F)c2)c(=O)c2cc3cc(C)ccc3n12,u,-6%
COc1ccc(C2CC(=O)c3c([nH]c(C(=O)OCc4ccccc4)c3C)C2)cc1 (centres undefined),u,-18%
COC(=O)Cn1ccc2cc(S(=O)(=O)N3CCCCC3)ccc21,u,-14%
Cc1ccc(-c2cc(C(F)(F)F)n3nc(C(=O)Nc4ccc(C#N)cc4)cc3n2)cc1,2%,-14%[11.5 µM]
Cc1ccc(CN(C(=O)COc2ccc(C)c(C)c2)C2CCS(=O)(=O)C2)o1 (centres undefined),-10%,-15%
COc1cccc(CNS(=O)(=O)c2ccc(N3CCCCS3(=O)=O)cc2)c1,u,16µM*
O=C(C=Cc1c(C(=O)O)[nH]c2cc(Cl)cc(Cl)c12)Nc1ccccc1,x,3%
CCOc1ccc(-c2cc(C(=O)NCc3ccc(C)cc3)c3ccccc3n2)cc1,-3%,-8%
Cc1ccc(C)c(N2CCN(C(=O)c3ccc(CS(=O)(=O)c4ccc(Br)cc4)o3)CC2)c1,u,u
CNC(=O)c1sc2ncccc2c1-n1cccc1,18%,-2%
CCOC(=O)Cn1c(=O)oc2cc(S(=O)(=O)N3CCN(c4cccc(C)c4C)CC3)ccc21,-19%,-12%
Cc1cccc(N2CCN(S(=O)(=O)c3ccc4c(c3)C(C(C)C)C(=O)N4)CC2)c1C (centres undefined),u,13µM*
Cc1ccc2c(c1)c(=O)c(C(=O)c1ccncc1)cn2CC(=O)Nc1ccccc1Cl,51%,-25%
CC(=O)Nc1ccc(S(=O)(=O)NC2(C(F)(F)F)C(=O)Nc3c2c(=O)[nH]c(=O)n3-c2ccc(C)c(C)c2)cc1 (centres undefined),-14%,-19%[11.5 µM]
COc1cccc(NC(=O)Cn2c(=O)n(-c3cccc(OC)c3)c(=O)c3c4c(sc32)CCCC4)c1,-8%,0%
Cc1nn(S(=O)(=O)c2ccc(F)cc2)c(C)c1S(=O)(=O)N1CCC(C)CC1,-1%,-8%
O=C(Cn1ncc2c3ccccc3n(Cc3cccc(Cl)c3)c2c1=O)NC1CCCCCC1,u,-7%
CCOC(=O)Cn1c(=O)n(-c2ccccc2OC)c2nc(-c3ccccc3C)nc(C(N)=O)c21,-32%,-21%
Cc1ccc(Nc2nc3ccccc3nc2-n2nc(C)cc2C)c(Cl)c1,-3%,-11%
CCCC(=O)Nc1cc(C)c(O)c(-c2nc3ncccc3o2)c1,u,-10%
CCc1ccc(C2=C(C)C(N3CCC(C(=O)NCc4ccc(C)o4)CC3)=NS2(=O)=O)cc1,u,u
Cc1ccc2c(=O)c(C(=O)c3ccc(Cl)cc3)cn(CC(=O)NC3CCCCC3)c2n1,-43%,13%
COc1ccc(NC(=O)Cn2c(=O)n(-c3ccc(C)c(C)c3)c(=O)c3c4c(sc32)CCCCC4)cc1Cl,9%,-14%
CCN1CCCC1CNC(=O)c1cc(S(N)(=O)=O)ccc1OC (centres undefined),x,-5%
CCN(CC)C(=O)c1sc2c(c1C)c(=O)n(-c1ccc(C)c(C)c1)c(=O)n2CC(=O)Nc1ccc(OC)cc1OC,u,0%
CCCOc1ccc(-c2cccc(NS(=O)(=O)c3cccs3)c2)nn1,-6%,-13%
Cc1ccc(C(C)C)c(OCC(=O)Nc2c(C(=O)c3ccccc3)oc3ccccc23)c1,0%,13%
CCCCNC(=O)CN1C(=O)c2c(c3ccccc3n2C)C1c1ccc(OC)cc1 (centres undefined),-8%,u
CC(=O)c1ccc(NC(=O)CSc2nc(=O)n(Cc3ccncc3)c3c2CCC3)cc1,15%,0%
CC(=O)N1CCCc2cc(S(=O)(=O)NCc3ccccc3Cl)ccc21,u,u
Cc1ccc(CNC(=O)CN(c2ccc(C)cc2)S(=O)(=O)c2c(C)nn(C)c2C)cc1,-11%,-14%

# Exported as tab-separated lines: entries from further up
molecule	PMP22 txn prim	HTT prom inh
CCOC(=O)Cn1c(=O)n(-c2ccccc2OC)c2nc(-c3ccccc3C)nc(C(N)=O)c21	-32%	-21%
Cc1ccc(Nc2nc3ccccc3nc2-n2nc(C)cc2C)c(Cl)c1	-3%	-11%
CCCC(=O)Nc1cc(C)c(O)c(-c2nc3ncccc3o2)c1	u	-10%
CCc1ccc(C2=C(C)C(N3CCC(C(=O)NCc4ccc(C)o4)CC3)=NS2(=O)=O)cc1	u	u
Cc1ccc2c(=O)c(C(=O)c3ccc(Cl)cc3)cn(CC(=O)NC3CCCCC3)c2n1	-43%	13%
COc1ccc(NC(=O)Cn2c(=O)n(-c3ccc(C)c(C)c3)c(=O)c3c4c(sc32)CCCCC4)cc1Cl	9%	-14%
CCN1CCCC1CNC(=O)c1cc(S(N)(=O)=O)ccc1OC (centres undefined)	x	-5%
CCN(CC)C(=O)c1sc2c(c1C)c(=O)n(-c1ccc(C)c(C)c1)c(=O)n2CC(=O)Nc1ccc(OC)cc1OC	u	0%
CCCOc1ccc(-c2cccc(NS(=O)(=O)c3cccs3)c2)nn1	-6%	-13%
Cc1ccc(C(C)C)c(OCC(=O)Nc2c(C(=O)c3ccccc3)oc3ccccc23)c1	0%	13%
CCCCNC(=O)CN1C(=O)c2c(c3ccccc3n2C)C1c1ccc(OC)cc1 (centres undefined)	-8%	u
CC(=O)c1ccc(NC(=O)CSc2nc(=O)n(Cc3ccncc3)c3c2CCC3)cc1	15%	0%
CC(=O)N1CCCc2cc(S(=O)(=O)NCc3ccccc3Cl)ccc21	u	u
Cc1ccc(CNC(=O)CN(c2ccc(C)cc2)S(=O)(=O)c2c(C)nn(C)c2C)cc1	-11%	-14%
